High-throughput results: PubChem BioAssay, SRMLSC
H5N1 CPE: MDCK cell protection from H5N1 avian flu; cytopathic effect, luminescence, 72 h; hits give high values; no value below 0 was filed and about half of the inactive calls have no number; reference of the scale not given here; inhibition, % at 50 µM; hit rate 0.07% among 96,000; in the data active = inhibition above about 25%
Active calls of the source: *; i = inactive. Some of the compounds tested; rates above refer to the full screens.

No.	compound	H5N1 CPE
1	CC(C)(C)n1nnnc1C(c1ccccc1F)N(Cc1ccco1)CC1CCCO1 (stereo unspecified)	0.7
2	CC(=O)Nc1ccc(S(=O)(=O)NCc2ccc(C(=O)NCCN3CCCCCC3)cc2)cc1	0.1
3	CN(C)c1ccc(C=Nc2ccccc2)cc1	i
4	CCN(CC)S(=O)(=O)c1ccc(F)c(C(=O)NCCCN2CCOCC2)c1	1.3
5	C=CCc1cccc2cc(NC(C)=O)c(=O)oc12	i
6	CCCC/C(C)=N/NC(=O)Nc1ccccc1	4.1
7	COc1ccc(C(=O)N2CCc3cc(OC)c(OC)cc3C2c2cccc([N+](=O)[O-])c2)cc1 (stereo unspecified)	0.9
8	CC12CCC(C(=O)N3CCN(c4ncccn4)CC3)(c3nc4ccccc4nc31)C2(C)C (stereo unspecified)	1.9
9	O=S1(=O)CCN2C(=N1)SC1=C2CCN(Cc2ccccc2)C1	0.9
10	COc1cc(CCNC(=O)c2cnn3ccccc23)cc(OC)c1OC	i
11	Cn1c(C(=O)NCc2ccccn2)cc2c(=O)n(C)c3ccccc3c21	i
12	O=S(=O)(Nc1cccc2nsnc12)c1ccccc1	i
13	COc1ccc(S(=O)(=O)N2CCN(Cc3ccc4c(c3)OCO4)CC2)c2ccccc12	0.3
14	CCCCCCCn1ccc(=N)cc1	i
15	CCC(C)(C)n1nnnc1C(c1cc2cccc(C)c2[nH]c1=O)N1CCN(C(=O)c2ccco2)CC1 (stereo unspecified)	i

Single values from the entries so far.
Under H5N1 CPE, CC(=O)Nc1ccc(S(=O)(=O)NCc2ccc(C(=O)NCCN3CCCCCC3)cc2)cc1 has the entry 0.1
Under H5N1 CPE, CC12CCC(C(=O)N3CCN(c4ncccn4)CC3)(c3nc4ccccc4nc31)C2(C)C (stereo unspecified) has the entry 1.9

The list goes on.
No.	compound	H5N1 CPE
16	O=C(O)CCc1ccc(-c2cccs2)n1NC(=O)c1ccco1	0.5
17	N#CC12CCCCC1CC1CCCCC1(C#N)N2Cc1ccccn1 (stereo unspecified)	0.1
18	COc1ccc(OC)c(C2=NOC(C(=O)Nc3cccnc3)C2)c1 (stereo unspecified)	0.1
19	CCOC(=O)c1ccccc1NC1c2ccccc2C(=O)N1C1CCN(C(=O)OCC)CC1 (stereo unspecified)	0.7
20	COC(=O)c1c(C#N)c(N)nc2c1CCC2	0.2
21	Cc1ccc(S(=O)(=O)N/N=C/c2ccc(OC3CSC3)cc2)cc1	i
22	Cc1cccc(OCC(=O)NNc2c3ccccc3nc3ccccc23)c1	7.3
23	CCOC(=O)C1=C(O)C(=O)N(c2ccc(S(N)(=O)=O)cc2)C1c1ccc(OC)cc1OC (stereo unspecified)	1.0
24	Cc1cc(C)n(C(=O)CNC(=O)COc2ccccc2)n1	0.2
25	CCc1c(C)nc2cc(-c3cccs3)[nH]n2c1=O	1.0
26	COCCNc1nc(SCC(=O)N2CCN(c3ccccc3OC)CC2)nc2ccccc12	i
27	COC(=O)c1ccc(/C=C/C(=O)c2ccc(OC)cc2)cc1	i
28	O=C(CCS(=O)(=O)c1cccc2nonc12)Nc1cccc2c1CCCC2	0.6
29	COc1ccc(NC(=O)c2sccc2SCC#N)cc1	i
30	O=C(C1CCN(S(=O)(=O)N2CCOCC2)CC1)N1CCc2ccccc21	i

Structures shown so far with four or more nitrogen atoms, in the order listed:
No.	compound	H5N1 CPE
1	CC(C)(C)n1nnnc1C(c1ccccc1F)N(Cc1ccco1)CC1CCCO1 (stereo unspecified)	0.7
2	CC(=O)Nc1ccc(S(=O)(=O)NCc2ccc(C(=O)NCCN3CCCCCC3)cc2)cc1	0.1
8	CC12CCC(C(=O)N3CCN(c4ncccn4)CC3)(c3nc4ccccc4nc31)C2(C)C (stereo unspecified)	1.9
11	Cn1c(C(=O)NCc2ccccn2)cc2c(=O)n(C)c3ccccc3c21	i
15	CCC(C)(C)n1nnnc1C(c1cc2cccc(C)c2[nH]c1=O)N1CCN(C(=O)c2ccco2)CC1 (stereo unspecified)	i
17	N#CC12CCCCC1CC1CCCCC1(C#N)N2Cc1ccccn1 (stereo unspecified)	0.1
26	COCCNc1nc(SCC(=O)N2CCN(c3ccccc3OC)CC2)nc2ccccc12	i

Continued.
No.	compound	H5N1 CPE
31	O=C(CC1SC2=NCCN2C1=O)Nc1ccc(Br)cc1 (stereo unspecified)	i
32	CCN1CCN(Cc2nc3c(c(=O)n(C)c(=O)n3C)n2CC(=O)c2ccccc2)CC1	0.9
33	COCCNC(=O)CSc1nc2ccccc2c(=O)n1CCCC(=O)NCc1ccccc1	0.0
34	CSc1nnc(C2CCCN2)n1C (stereo unspecified)	i
35	Cc1occc1-c1nnc(SCC(=O)NC(=O)NC(C)C)n1N	i
36	COc1cc(OC)cc(C(=O)NC2CCSC2=O)c1 (stereo unspecified)	0.1
37	Cc1ccc(S(=O)(=O)n2cnc3cc([N+](=O)[O-])ccc32)c(C)c1C	0.8
38	Cc1c(Br)c([N+](=O)[O-])nn1C(C)C(=O)NCc1cccnc1 (stereo unspecified)	1.0
39	Cc1c(C(=O)OC2CCCC2C)[nH]c2c1C(=O)CCC2 (stereo unspecified)	i
40	COc1cc(-c2nc(-c3ccc(NC(=O)c4ccc(Br)o4)cc3)no2)cc(OC)c1OC	i
41	CC(C)(C)C1CCc2[nH]nc(C(=O)O)c2C1 (stereo unspecified)	i
42	CCC(=NCCN1CCOCC1)c1c(O)n(-c2ccccc2C)c(=O)[nH]c1=O	i
43	COc1ccc(C/C(N)=N/n2cnnc2)cc1	1.3
44	COC(=O)c1cn(-c2ccccc2)nc1-c1ccccc1	i
45	CC1(C)CC(NC(=O)c2ccc3c(c2)OCO3)CC(C)(C)N1	i
46	CCOc1ccc(-c2[nH]nc3c2C(c2ccc(O)cc2)C(C#N)=C(N)O3)cc1 (stereo unspecified)	i
47	Cc1ccccc1C(=O)NC1CCN(Cc2nnnn2CCc2ccccc2)CC1	i
48	COc1ccccc1Oc1coc2cc(O)ccc2c1=O	i
49	COc1ccc(C2=NN(C(C#N)c3ccc(OC)c(OC)c3)C(c3ccccc3)C2)cc1 (stereo unspecified)	i
50	CCOc1cccc2cc(C(=O)N3CCc4ccccc4C3)c(=O)oc12	i
51	CCn1c(COc2cccc3ccccc23)nnc1SCC(=O)OC1CCCCC1	i
52	CN(CC(=O)Nc1ccncc1)S(=O)(=O)c1ccccc1	i
53	CCc1nc2oc3cc(OC)ccc3c(=O)c2c(=O)n1Cc1ccco1	2.8
54	O=S(=O)(c1cccc2nsnc12)N1CCOCC1	i
55	COC(=O)c1ccc(NC(=O)CSc2nnc(COc3ccccc3)n2C)cc1	i
56	COc1cccc(NC(=O)c2oc3ccccc3c2NC(=O)C2CC2)c1	1.2
57	CCN(Cc1ccccc1)Cc1c(F)cccc1F	i
58	CSc1ccccc1NC(=O)c1ccc(Br)o1	i
59	CCC(=O)Nc1c2c(nn1-c1ccc(C)cc1C)CSC2	0.2
60	O=c1cc(CO)oc(C(Nc2ccccn2)c2cccc(F)c2)c1O (stereo unspecified)	0.2

Nos. 16–17 from above:
No.	compound	H5N1 CPE
16	O=C(O)CCc1ccc(-c2cccs2)n1NC(=O)c1ccco1	0.5
17	N#CC12CCCCC1CC1CCCCC1(C#N)N2Cc1ccccn1 (stereo unspecified)	0.1

(continued)
No.	compound	H5N1 CPE
61	Cc1ccccc1C(=O)N/N=C/c1ccc([N+](=O)[O-])s1	0.1
62	COCC(C)NC(=O)NC1(C(F)(F)F)Oc2ccc(Cl)cc2O1 (stereo unspecified)	i
63	O=c1c2c3c(sc2n2cnnc2n1CCc1ccccc1)CCCC3	2.4
64	CCCOc1ccc(C2c3c(oc4ccccc4c3=O)C(=O)N2CCCN2CCOCC2)cc1 (stereo unspecified)	i
65	O=C(Nc1ccc2c(c1)OCO2)C1CCN(C(=O)c2cccs2)CC1	i
66	CC(=O)N1CCc2cc(S(=O)(=O)NCCC(=O)N3CCc4ccccc4C3)ccc21	i
67	CCC(=Nc1ccc(Cc2ccncc2)cc1)c1c(O)n(C)c(=O)n(C)c1=O	1.1
68	COc1ccc(C(=O)Nc2ccc3c(c2)nc2n3CCSC2)cc1	0.9
69	COc1ccccc1OCc1ccc(C(=O)n2nc(C)c(Cl)c2C)o1	0.1
70	Nc1ccc(Sc2cc(Cl)nc(N)n2)cc1	0.1
71	COc1ccc(OC)c(C2=NOC(C(=O)Nc3cc(C)nn3-c3ccccc3)C2)c1 (stereo unspecified)	48.2*
72	O=C1Nc2ccccc2N=C(c2ccccc2)C1N1CCOCC1 (stereo unspecified)	i
73	O=C(Nc1ccc2c(c1)OCO2)C(c1ccccc1)N1CCCCC1 (stereo unspecified)	1.4
74	CCc1ccc2[nH]c(=O)c(CN(CCN(CC)CC)C(=O)NC3CCCCC3)cc2c1	0.7
75	Cc1nnc2ccc(N3CCCC3)nn12	i
76	CCOC(=O)/C(C(N)=NC)=C(\O)c1ccccc1	0.2
77	CCCn1nc(-c2ccccc2)c2nc3ccccc3nc21	0.8
78	COc1ccc(OC)c(-c2cc(C(=O)Nc3c(C)nn(Cc4ccccc4)c3C)no2)c1	i
79	COC(=O)C1=C(C)N(c2ccccc2)/C(=C/c2cccs2)C1=O	i
80	Cc1ccc2cc(/C=N/NC(=O)CN3CCOCC3)c(Cl)nc2c1	0.3
81	CC(C)CCN1C(=O)c2ccccc2C1C(=O)NCc1cccnc1 (stereo unspecified)	i
82	CCCOC(=O)c1cc(=O)[nH]c2ccccc12	i
83	CC(c1ccccc1)N1CC(C(=O)N2CCN(c3ccccc3)CC2)CC1=O (stereo unspecified)	0.9
84	O=[N+]([O-])c1cc(Cl)cc(C2=NCCN2)c1	1.7
85	Cc1ccn(C(=O)c2cc3c(C)nn(-c4ccccc4)c3s2)n1	i
86	CC1=CC(C)(C)N(C(=O)CSc2ncn[nH]2)c2ccccc21	1.9
87	COc1cnn(-c2cc(Oc3ccc(C)cc3)ncn2)c(=O)c1Cl	i
88	Cc1ccc(NC(=O)NNS(=O)(=O)c2ccc(Br)cc2)cc1	i
89	O=C(O)c1cccnc1SC1CC(=O)N(Cc2ccccc2)C1=O (stereo unspecified)	0.7
90	Cc1ccc(C(=O)CSc2nnc(-c3ccccc3N)n2C)cc1	i
91	COc1ccc(/C=N/N=C2\CC3CCC2(C)C3(C)C)cc1O (stereo unspecified)	i
92	Cc1ccc(-n2c(C)cc(C)c(C#N)c2=O)cc1	i
93	O=C(CS(=O)(=O)c1c[nH]c2ccccc12)N1CCCCC1	0.4
94	CCCOc1ccc(/C(O)=C2/C(=O)C(=O)N(CCN(C)C)C2c2ccco2)cc1 (stereo unspecified)	0.6
95	COc1ccc(OC)c(S(=O)(=O)N2c3ccccc3CC2C)c1 (stereo unspecified)	0.8
96	Cc1ccc2nsnc2c1S(=O)(=O)N1CCOCC1	1.0
97	COc1ccc(C2CC(=O)CC(=O)C2n2cncn2)cc1 (stereo unspecified)	0.6
98	CCOC(=O)c1c(-c2ccc(Cl)cc2)c(C#N)c(=O)n(N)c1N	1.3
99	CCn1c(C(=O)N2CCC(C(=O)NCc3cccs3)CC2)cc2sccc21	1.3
100	c1ccc(C2CC(c3ccccc3)n3ncnc3N2)cc1 (stereo unspecified)	1.4
101	COc1ccc2c(c1)cc(C)c1nnc(SCC(=O)N(C)c3nc(-c4ccccc4)cs3)n12	i
102	CN(C)CCOC(=O)CCc1ccccc1	0.8
103	c1ccc2c(c1)C(=Nn1cnnc1)c1ccccc1-2	0.5
104	Cc1cccc(C(=O)n2c(=S)nc3ccccn32)c1	0.6
105	CC(=O)NC1C(=O)SC1(C)C (stereo unspecified)	i
106	O=[N+]([O-])c1ccc(N2CCCCCC2)c([N+](=O)[O-])c1	1.2
107	O=C1c2[nH]nc(-c3ccccc3O)c2C(c2ccccc2F)N1Cc1ccco1 (stereo unspecified)	1.1
108	CCOC(=O)N1CCC(NC(=O)C2CCCN(S(=O)(=O)c3cccc4nsnc34)C2)CC1 (stereo unspecified)	0.0
109	CCNc1nc(NCc2ccccc2)nc(Oc2ccc(=O)[nH]n2)n1	0.4
110	O=C(CN1CCN(C(=O)c2ccco2)CC1)Nc1cc(Cl)ccc1Cl	i
111	Cc1ccc(S(=O)(=O)N(C)Cc2nc(-c3ccc(Br)cc3)no2)cc1	1.0
112	C/C(CC1(O)C(=O)Nc2ccccc21)=N\O (stereo unspecified)	i
113	COc1cc(NS(=O)(=O)c2ccc(C)c(C)c2)c(OC)cc1Cl	i
114	CC1(C)Cc2c(C#N)c(N3CCN(C(=O)c4ccccc4)CC3)nc(Cc3ccccc3)c2CO1	2.8
115	CCN(CC)CC(=O)Nc1ccc(-c2nc3cc(NC(=O)CN(CC)CC)ccc3o2)cc1	i
116	CCNC(=O)/C(=C\c1ccc2c(c1)OCO2)NC(=O)c1ccc(Br)cc1	i
117	CCC(=O)N1CCN(c2nc(-c3ccccc3)c3c(c2C#N)CCCC3)CC1	2.6
118	COc1ccc(N(C(=O)c2ccco2)S(=O)(=O)c2ccccc2)cc1	i
119	CC(=O)c1cc2c(cc1NC(=O)CCCC(=O)O)OCO2	i
120	CCC(=O)OCCn1c(Br)nc2c1c(=O)[nH]c(=O)n2C	i

(cont.)
No.	compound	H5N1 CPE
121	O=S(=O)(c1ccc(SCCO)nc1)N1CCCC1	i
122	CS(=O)(=O)N(CC(=O)NCc1ccco1)c1ccc2c(c1)OCO2	i
123	Cc1nnc(NC(=O)CCCN2C(=O)c3ccccc3C2=O)s1	1.1
124	COC(=O)c1ccccc1CON1C(=O)C(C)(C)N(OCc2ccccc2C(=O)OC)C(=O)C1(C)C	i
125	Cc1ccc(Oc2nccc(-c3ccc(Cl)cc3)n2)cc1	0.1
126	CC(C)C(=O)Nc1cccc(C(=O)Nc2nncs2)c1	1.1
127	CCNC(=O)CC1C(=O)N(c2ccccc2)C(=O)N1CCC(C)C (stereo unspecified)	0.4
128	C=CCNC(=O)/C(=C\c1ccc([N+](=O)[O-])cc1)NC(C)=O	0.5
129	CCOc1ccc(S(=O)(=O)n2nc(C)cc2C)c2ccccc12	0.7
130	C=CCn1c(CNc2ccc(C)cc2)nnc1SCC(=O)N/N=C/c1ccc(O)cc1O	0.3
131	CC(=O)N1CCC2(CC1)CC(=O)c1cc(OCC(=O)NCc3ccco3)ccc1O2	1.8
132	O=c1cc(CSc2ccc(Cl)cc2)nc(N2CCCCC2)[nH]1	0.8
133	COc1ccc(C(=O)/C=C/c2ccccc2F)c(OC(=O)c2ccc([N+](=O)[O-])cc2)c1	0.2
134	CC1CCCC(N2CCN(C(=O)c3cccc(F)c3)CC2)C1 (stereo unspecified)	i
135	COc1ccc(CN2CCN(c3cccc(C)c3C)CC2)cc1OC	i
